Bioassay records as filed in PubChem BioAssay.
ID4 binder = binders of human ID4 protein, primary screen, biochemical, small molecule microarray, single point. actives 1.2% (n = 31,000). Flag-ID4 binding, fluorescence F/B. calls only;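 active = spot signal over background at p below 0.07 in all four prints; compounds were printed on slides so no solution concentration is given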;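 also: a binder raises fluorescence above local background on the spot; about 2 pmol printed per array spot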
Target sequence (P47928 whole entry, looked up): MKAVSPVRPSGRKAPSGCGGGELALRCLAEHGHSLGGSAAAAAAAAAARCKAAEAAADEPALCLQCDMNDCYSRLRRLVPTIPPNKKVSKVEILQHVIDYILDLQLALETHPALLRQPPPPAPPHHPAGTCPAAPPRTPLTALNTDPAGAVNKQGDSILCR
STAT3 binder = STAT3 binders, primary screen, biochemical, small molecule microarray, single point, set 2; calls only; His-STAT3 binding, anti-His fluorescence; actives 0.2% (n = 17,000);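 active = compounds whose four printed spots each show fluorescence over background unusually high for their array block, chance value under 7%; compounds were printed on slides so no solution concentration is given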;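 also: about 2 pmol printed per array spot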
Target sequence (P40763 whole entry, looked up): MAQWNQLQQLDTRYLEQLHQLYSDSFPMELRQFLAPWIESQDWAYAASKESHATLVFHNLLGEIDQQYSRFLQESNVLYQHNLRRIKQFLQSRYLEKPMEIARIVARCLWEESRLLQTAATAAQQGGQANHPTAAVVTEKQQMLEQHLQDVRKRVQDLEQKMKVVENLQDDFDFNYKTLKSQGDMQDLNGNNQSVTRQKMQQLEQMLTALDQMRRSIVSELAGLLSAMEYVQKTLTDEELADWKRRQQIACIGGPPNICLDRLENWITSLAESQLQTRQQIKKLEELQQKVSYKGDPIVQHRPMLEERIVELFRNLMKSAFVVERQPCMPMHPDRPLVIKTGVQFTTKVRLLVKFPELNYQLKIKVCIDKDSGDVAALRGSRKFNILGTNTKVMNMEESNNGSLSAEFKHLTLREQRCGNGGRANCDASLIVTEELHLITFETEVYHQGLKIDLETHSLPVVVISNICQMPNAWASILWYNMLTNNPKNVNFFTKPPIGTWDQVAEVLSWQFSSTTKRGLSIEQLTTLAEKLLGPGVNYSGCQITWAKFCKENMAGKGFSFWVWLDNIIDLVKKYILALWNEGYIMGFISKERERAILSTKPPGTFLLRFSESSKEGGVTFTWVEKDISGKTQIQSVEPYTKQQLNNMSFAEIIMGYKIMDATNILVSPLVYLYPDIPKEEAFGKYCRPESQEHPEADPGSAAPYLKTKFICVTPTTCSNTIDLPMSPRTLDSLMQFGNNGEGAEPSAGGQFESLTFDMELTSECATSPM
c-Myc SMM = binders of human c-Myc, primary screen, biochemical, small molecule microarray, anti-His fluorescence. Myc proto-oncogene protein (Homo sapiens), P01106. AID 624141, 2012. actives 1.5% (n = 17,000). calls only. His-c-Myc binding;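 active = spot fluorescence over background with P-value below 7% in all four replicate spots, showing protein binding; compounds were printed on slides so no solution concentration is given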;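 also: score is binary with 100 for all four spots passing and 0 otherwise; about 2 pmol printed per array spot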
p53 mut binder = binders of human mutant p53, primary screen, biochemical, small molecule microarray, anti-GST fluorescence. actives 0.4% (n = 17,000). small molecule microarray binding. calls only;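 active = compounds whose four printed spots each glow above background more than chance allows, each with a p-value under 7%; compounds were printed on slides so no solution concentration is given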;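 also: about 2 pmol printed per array spot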
Calls only; i = inactive; . = no result given; + = active, no number. A portion of the library. The share of hits here may be higher or lower than overall.

SMILES | STAT3 binder | c-Myc SMM | p53 mut binder | ID4 binder
CCOc1ccccc1CN1CCN(Cc2cc(Br)ccc2O)CC1 | i | i | i | i
CNC[C@@H]1Oc2ncc(Br)cc2C(=O)N([C@H](C)CO)C[C@@H]1C | i | i | i | i
CC1(CCO[C@H]2O[C@H](CO)[C@@H](O)[C@H](O)[C@H]2O)CCC2C(=CCC3[C@]2(C)CCC[C@@]3(C)C(=O)O)C1 (stereo partly drawn) | i | i | i | i
C[C@H](CO)N1C[C@H](C)[C@@H](CN(C)C(=O)Nc2ccc(F)cc2)Oc2ccc(NC(=O)NC3CCCCC3)cc2C1=O | i | i | i | i
CCOC(=O)CSc1nnc2c3ccccc3n(C)c2n1 | i | i | i | i
COCCOC(=O)N1C(=O)[C@@]2(c3cc(C#CC4=CCCCC4)ccc31)[C@H](C(=O)N1CCN(c3ncccn3)CC1)[C@H]1C(=O)O[C@H](c3ccccc3)[C@H](c3ccccc3)N1[C@@H]2c1ccccc1OCCO | i | i | i | i
CS(=O)(=O)Nc1ccc([N+](=O)[O-])cc1OC1CCCCC1 | i | i | i | .
COc1ccc(S(=O)(=O)N(C)C[C@@H]2Oc3c(NC(=O)NC4CCCCC4)cccc3C(=O)N([C@@H](C)CO)C[C@@H]2C)cc1 | i | i | i | i
C[C@@H]1CN([C@@H](C)CO)C(=O)c2cc(NC(=O)C3CC3)ccc2O[C@H]1CN(C)C | i | i | i | i
Clc1ccc(CSc2nnc(-c3ccco3)n2Cc2ccco2)c(Cl)c1 | i | i | + | i
CNC[C@H]1OCCCC[C@H](C)Oc2ccc(NC(=O)Nc3cccc4ccccc34)cc2C(=O)N([C@@H](C)CO)C[C@@H]1C | i | i | i | i
Cc1noc(C)c1NC(=O)N(C)C[C@H]1Oc2ccc(NS(=O)(=O)c3cn(C)cn3)cc2C(=O)N([C@H](C)CO)C[C@H]1C | i | i | i | i
C[C@H]1CN([C@@H](C)CO)C(=O)c2cc(NC(=O)Nc3ccc(F)cc3)ccc2O[C@@H]1CN(C)S(=O)(=O)c1cccs1 | i | i | i | i
Cc1noc(C)c1NC(=O)Nc1ccc2c(c1)C(=O)N([C@H](C)CO)C[C@@H](C)[C@H](CN(C)C(=O)C1CCCCC1)OCCCC[C@@H](C)O2 | i | i | i | i
CC(C)NC(=O)Nc1ccc2c(c1)C(=O)N([C@@H](C)CO)C[C@H](C)[C@H](CN(C)C(=O)CCC(F)(F)F)OCCCC[C@H](C)O2 | i | i | i | i
CCC(=O)Nc1ccc(C(=O)Nc2cc(OC)ccc2NC(=O)c2ccco2)cc1 | i | i | i | i
C[C@@H]1CN([C@H](C)CO)C(=O)c2cc(NC(=O)Cc3ccccc3)ccc2O[C@@H]1CN(C)C(=O)NC1CCCCC1 | i | i | i | i
C[C@H](CO)N1C[C@H](C)[C@H](CN(C)S(=O)(=O)c2cccs2)Oc2ccc(NS(C)(=O)=O)cc2CC1=O | i | i | i | i
Cc1noc(C)c1NC(=O)N(C)C[C@@H]1Oc2ccc(NC(=O)CCC(F)(F)F)cc2CC(=O)N([C@@H](C)CO)C[C@H]1C | i | i | i | .
C[C@@H]1CN([C@H](C)CO)C(=O)Cc2cc(NC(=O)Cn3cnnn3)ccc2O[C@H]1CN(C)C(=O)NC1CCCCC1 | i | i | i | i
COc1ccc(CCNC(=O)c2nc(SC)ncc2Cl)cc1OC | i | i | i | i
Cc1noc(C)c1NC(=O)N(C)C[C@@H]1OCCCC[C@H](C)Oc2ccc(NS(=O)(=O)c3ccc(F)cc3)cc2C(=O)N([C@H](C)CO)C[C@@H]1C | i | i | i | .
CCOC(=O)Nc1ccc2c(c1)N(C(=O)CN1CCOCC1)c1ccccc1CC2 | i | i | i | i
CC(=O)c1cccc(NC(=O)Cn2nc(C)c([N+](=O)[O-])c2C)c1 | i | i | i | i
Cc1noc(C)c1S(=O)(=O)Nc1cccc2c1O[C@@H](CN(C)Cc1ccc(C(=O)O)cc1)[C@@H](C)CN([C@@H](C)CO)C2=O | i | i | i | i
CNC[C@H]1Oc2ccc(NC(=O)C3CC3)cc2CC(=O)N([C@H](C)CO)C[C@@H]1C | i | i | i | i
Cc1ccccc1NC(=O)COc1ccc(-c2nc3sc4c(c3c(=O)[nH]2)CCCC4)cc1 | i | i | i | i
O=Nc1c(-c2c(O)[nH]c3ccccc23)[nH]c2ccccc12 | i | i | i | .
NS(=O)(=O)c1ccc(NC(=S)NCCc2c[nH]c3ccccc23)cc1 | i | i | i | i
C[C@H]1CCCCO[C@H](CN(C)C)[C@@H](C)CN([C@@H](C)CO)C(=O)c2cc(NC(=O)CCCN(C)C)ccc2O1 | i | i | i | i
C=C(C(=O)O)C1CCC2(C)CCC(O)C2(C(C)=O)C1 (stereo not drawn) | i | i | i | i
COc1c(OC2OC(CO)C(O)C(O)C2O)ccc(O)c1C(=O)OCc1ccccc1O[C@@H]1O[C@H](CO)[C@@H](O)[C@H](O)[C@H]1O (stereo partly drawn) | i | i | i | i
N#Cc1c(-c2ccco2)nc(SCC(=O)Nc2ccc(I)cc2)[nH]c1=O | i | i | i | i
C[C@@H]1CN([C@@H](C)CO)C(=O)c2cc(NC(=O)Cc3ccccc3)ccc2O[C@@H](C)CCCCO[C@H]1CN(C)C(=O)CCC(F)(F)F | i | i | i | i
C[C@H]1CN([C@@H](C)CO)C(=O)Cc2cc(NC(=O)Nc3ccc(C(F)(F)F)cc3)ccc2O[C@@H]1CN(C)Cc1ccncc1 | i | i | i | i
Cc1cc(C)nc(SCC(=O)Nc2ccc(C(=O)O)cc2)n1 | i | i | i | i
Cc1nc2cc(Br)ccc2c(=O)n1Cc1cccc(O)c1 | i | i | i | .
Cc1ccc(C(=O)CC(C(=O)O)n2ccc(C)n2)cc1 (stereo not drawn) | i | + | i | i
O=C(C1=C[C@@H](c2ccccc2)C[C@@H](OCCCCO)O1)N1CCN(Cc2ccccc2)CC1 | i | i | i | i
C[C@@H]1CCC2C(C)(C)CCC[C@@]2(C)[C@@]1(O)CC/C(=C\CO)CO (stereo partly drawn) | i | i | i | .
C[C@@H]1CN([C@@H](C)CO)C(=O)Cc2cc(N(C)C)ccc2O[C@@H]1CN(C)Cc1ccc(Oc2ccccc2)cc1 | i | i | i | .
O=C(NCc1ccccc1)C(c1ccccc1)N(Cc1ccccc1)C(=O)Cc1ccccc1 (stereo not drawn) | i | i | i | i
O=C(NCc1cccnc1)c1cnn2c(C(F)(F)F)cc(-c3ccccc3)nc12 | i | i | i | i
O=C(Nc1ccncc1)c1cc([N+](=O)[O-])ccc1Cl | i | i | i | i
CC(C)NC(=O)Nc1ccc2c(c1)C(=O)N([C@@H](C)CO)C[C@@H](C)[C@H](CN(C)S(=O)(=O)c1cn(C)cn1)OCCCC[C@@H](C)O2 | i | i | i | i
OCc1nc2ccccc2n1CCOc1cccc(Cl)c1 | i | i | i | i
C[C@@H]1CN([C@@H](C)CO)C(=O)c2cccc(NC(=O)C3CCOCC3)c2O[C@H]1CN(C)S(=O)(=O)c1ccc(Cl)cc1 | i | i | i | i
CCOC(=O)c1c(-c2ccccc2)csc1NC(=O)Cn1cnc2ccccc2c1=O | i | i | i | i

Reformatted: 2 of the compounds above.
C[C@@H]1CN([C@H](C)CO)C(=O)c2cc(NC(=O)Cc3ccccc3)ccc2O[C@@H]1CN(C)C(=O)NC1CCCCC1
  STAT3 binder: i	c-Myc SMM: i	p53 mut binder: i	ID4 binder: i

COCCOC(=O)N1C(=O)[C@@]2(c3cc(C#CC4=CCCCC4)ccc31)[C@H](C(=O)N1CCN(c3ncccn3)CC1)[C@H]1C(=O)O[C@H](c3ccccc3)[C@H](c3ccccc3)N1[C@@H]2c1ccccc1OCCO
  STAT3 binder: i	c-Myc SMM: i	p53 mut binder: i	ID4 binder: i

Later entries:
SMILES | STAT3 binder | c-Myc SMM | p53 mut binder | ID4 binder
CC1CC(=O)C2=C(C1)C1OC1C1(O)C2C(=O)c2cccc(O)c2C1O (stereo not drawn) | i | i | i | .
Cc1cccc(NC(=O)C2CN(S(=O)(=O)c3ccccc3)CCN2S(=O)(=O)c2ccccc2)c1 (stereo not drawn) | i | i | i | i
C[C@@H]1CN([C@@H](C)CO)C(=O)Cc2cc(NC(=O)Cc3cn(C)c4ccccc34)ccc2O[C@H]1CN(C)S(=O)(=O)c1cn(C)cn1 | i | i | i | i
C[C@@H]1Cc2c(O)c(O)cc(O)c2C(=O)O1 | i | i | i | i
CC(=O)Nc1ccc(S(=O)(=O)Nc2ccc([N+](=O)[O-])cc2)cc1 | i | i | i | i
C[C@H](CO)N1C[C@H](C)[C@H](CN(C)S(=O)(=O)c2cccs2)OCCCC[C@H](C)Oc2ccc(NS(=O)(=O)c3cccs3)cc2C1=O | i | i | i | i
Cc1ccc(S(=O)(=O)N(C)C[C@@H]2Oc3ccc(NS(=O)(=O)c4ccccc4)cc3CC(=O)N([C@H](C)CO)C[C@H]2C)cc1 | i | i | i | .
CNC[C@H]1Oc2c(NS(=O)(=O)c3cn(C)cn3)cccc2C(=O)N([C@H](C)CO)C[C@@H]1C | i | i | i | i
CCOC(=O)C1CCCCN1Cc1cccc([N+](=O)[O-])c1 (stereo not drawn) | i | i | i | i
NS(=O)(=O)c1ccc(CCNC(=O)c2cccnc2)cc1 | i | i | i | i
CNC[C@H]1OCCCC[C@@H](C)Oc2ccc(NS(=O)(=O)c3c(C)noc3C)cc2C(=O)N([C@@H](C)CO)C[C@H]1C | i | i | i | i
C[C@H]1CCCCO[C@H](CN(C)Cc2ccncc2)[C@@H](C)CN([C@@H](C)CO)C(=O)c2cc(NS(=O)(=O)c3ccccc3)ccc2O1 | i | i | i | i

One compound at a time, as listed above. Screens in order: STAT3 binder | c-Myc SMM | p53 mut binder | ID4 binder
C[C@H]1CN([C@@H](C)CO)C(=O)Cc2cc(NC(=O)Nc3ccc(C(F)(F)F)cc3)ccc2O[C@@H]1CN(C)Cc1ccncc1 is listed as i | i | i | i
CS(=O)(=O)Nc1ccc([N+](=O)[O-])cc1OC1CCCCC1 is listed as i | i | i | .

The listing continues.
SMILES | STAT3 binder | c-Myc SMM | p53 mut binder | ID4 binder
C[C@H](CO)N1C[C@H](C)[C@@H](CN(C)Cc2ccccc2)OCCCC[C@H](C)Oc2ccc(NC(=O)Nc3ccc4c(c3)OCO4)cc2C1=O | i | i | i | i
Cc1ccccc1OCCn1c(C(C)O)nc2ccccc21 (stereo not drawn) | i | i | i | i
C[C@@H]1CN([C@H](C)CO)C(=O)Cc2cc(NS(=O)(=O)c3cn(C)cn3)ccc2O[C@@H]1CN(C)S(=O)(=O)c1cn(C)cn1 | i | i | i | i
C[C@H](CO)N1C[C@H](C)[C@H](CN(C)C(=O)NC2CCCCC2)Oc2ccc(NC(=O)Nc3ccc(C(F)(F)F)cc3)cc2CC1=O | i | i | i | i
C=C(COC(C)=O)[C@@H]1Cc2cc(C(C)=O)ccc2O1 | i | i | i | .
C[C@@H]1CN([C@@H](C)CO)C(=O)CCCn2nncc2CO[C@@H]1CN(C)S(=O)(=O)c1ccc2ccccc2c1 | i | i | i | i
O=S(=O)(c1ccccc1)N1CCN(Cc2cccc(OCCO)c2)CC1 | i | i | i | i
C[C@H]1CCCCO[C@@H](CN(C)C(=O)Nc2ccc(F)cc2)[C@@H](C)CN([C@@H](C)CO)C(=O)c2cc(NS(=O)(=O)c3ccccc3)ccc2O1 | i | i | i | i
C[C@@H]1CN([C@@H](C)CO)C(=O)c2cc(NC(=O)Nc3ccc(F)cc3)ccc2O[C@H]1CN(C)Cc1ccc(C(=O)O)cc1 | i | i | i | .
C[C@H]1CCCCO[C@H](CN(C)C(=O)Nc2ccccc2)[C@@H](C)CN([C@@H](C)CO)C(=O)c2cc(NC(=O)C3CCCCC3)ccc2O1 | i | i | i | i
COC(=O)c1ccc([C@@H]2C=C(C(=O)N3CCN(Cc4ccc5c(c4)OCO5)CC3)O[C@H](OCc3ccc(CO)cc3)C2)cc1 | i | i | i | i
CCO[C@@H]1OC(C(=O)O)=C[C@H](c2csc3ccccc23)[C@H]1CCCO | i | i | i | i
Cc1noc(C)c1NC(=O)Nc1cccc2c1O[C@@H](CN(C)Cc1ccc3c(c1)OCO3)[C@@H](C)CN([C@@H](C)CO)C2=O | i | i | i | i
CC1(CO)CCCC2(C)C3=C(CC(=O)C12)C(=O)OC3 (stereo not drawn) | i | i | i | .
COc1ccc(C(=O)NCc2oc(-c3ccccc3)cc2C(=O)O)cc1 | i | i | i | i
COc1ccc(-c2noc(CSc3nc(-c4ccccc4)cc(=O)[nH]3)n2)cc1OC | i | i | i | i
COC(=O)C1=C(C)NC(C)=C(C(=O)OCCCN2CCC(c3ccccc3)(c3ccccc3)CC2)[C@H]1c1cccc([N+](=O)[O-])c1 | i | i | i | i
C[C@@H]1CN([C@@H](C)CO)C(=O)c2cccc(NS(C)(=O)=O)c2O[C@H]1CN(C)CC1CC1 | i | i | i | i
C[C@H](CO)N1C[C@H](C)[C@H](CN(C)S(=O)(=O)c2ccc(Cl)cc2)Oc2c(NC(=O)C3CCOCC3)cccc2C1=O | i | i | i | i
COc1c2c(cc3oc(CO[C@@H]4O[C@H](CO)[C@@H](O)[C@H](O)[C@H]4O)cc(=O)c13)OC(C(C)(C)O)C2 (stereo partly drawn) | i | i | i | i
